Compound activity deposited in PubChem by GNF / Scripps  Winzeler lab.
P. yoelii liver: Plasmodium liver-stage growth inhibition, dose response, imaging, Malaria Box, P. yoelii, HepG2-A16-CD81EGFP (AID 602156); calls after a first round at 10 µM; hits with a dose series show IC50 in µM; P. yoelii liver stage in HepG2-A16-CD81EGFP, imaging; first-round cut-off not given here; 5,700 compounds, 4.8% hits; in the data active = a potency from the dose series;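 note: infected cells exposed to compound for 48 hours before fixation; stained parasite area by imaging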
The depositor's hits bear a star; i = inactive.

SMILES | P. yoelii liver
COc1cccc(-c2ccc(O)c(CN(C)CC(O)c3ccccc3)c2)n1 (stereo not drawn) | i
O=C(Nc1ccon1)c1cc(-c2cccnc2)nc2ccc(Cl)cc12 | i
COc1cccc(CNC(=O)[C@@H]2CNC[C@H]2c2ccc(C(F)(F)F)cc2)c1 | i
Cc1c(/C=C2\SC(=Nc3ccccc3F)N(C3CCCCC3)C2=O)c2ccccc2n1CC(N)=O | i
O=C(CN1CCCC1)Nc1ccc(-c2nc3cc(NC(=O)CN4CCCC4)ccc3o2)cc1 | i
O=C(NC1CCN(CC(O)CN(Cc2ccccc2)S(=O)(=O)c2ccccc2)C1)c1ccsc1 (stereo not drawn) | i
Cc1ccc(OCC(=O)Nc2cccc(C(=O)O)c2)c(Br)c1 | i
COc1cc(/C=C\C(=O)Nc2c3c(nn2-c2ccc(F)cc2)CSC3)cc(OC)c1OC | i
OC(CNc1cccc2ccccc12)Cn1c2ccc(Cl)cc2c2cc(Cl)ccc21 (stereo not drawn) | i
O=C(NC1CC1)c1ccc(CSCc2ccccc2Cl)o1 | 0.14µM*
Cc1cccc(NC(=O)/C(C#N)=C/c2ccc(C)o2)c1 | i
CC(C=NNC(N)=S)=NNC(N)=S | i
CC(C)N(CC(=O)Nc1cc(C(C)(C)C)nn1-c1ccc(Cl)c(Cl)c1)C(=O)c1ccc2ccccc2c1 | i
O=C(NCc1ccco1)C1CCCN(c2cccc3c2C(=O)N(CCc2cccc(F)c2)C3=O)C1 (stereo not drawn) | i
Oc1ccc(-c2ccccc2)cc1CN1CCC(c2ccccc2)CC1 | i
O=C(Nc1ccccc1C(=O)O)c1cccc(NC(=O)c2ccco2)c1 | i
O=Cc1c(OCc2ccc(Cl)cc2Cl)ccc2ccccc12 | i
CSc1c(C(=O)Nc2ccc(Br)cc2)ccc2c1C(=O)c1ccccc1C2=O | i
O=C(/C=C/c1ccccn1)NCC1Cc2cc(-c3cnccn3)ccc2O1 (stereo not drawn) | i
CN(C)c1ccc(-c2n(C)c3ccccc3[n+]2C)cc1 | 0.17µM*
CCCOC(=O)C1=C(C)NC2=C(C(=O)CC(c3ccc(OC)c(OC)c3)C2)C1c1ccccc1F (stereo not drawn) | i
CCN(CC)Cc1ccc2c(NC(=O)c3ccc(C)s3)c(C(=O)OC)sc2n1 | i
COc1ccc(NC(=O)c2cnn(-c3ccccc3)c2NC(=O)c2ccco2)cc1 | i
COc1ccc(-n2c(COc3cccc4ccccc34)nnc2SC)cc1 | i
O=C(NCCc1nc(-c2ccncc2)n[nH]1)C12CC3CC(CC(C3)C1)C2 | i
CC1(C)Oc2ccc(C(=O)N3CCCC3)cc2N(CCc2ccccc2)C1=O | i
CCN1CCN(c2cc(C)c3cc(NC(=O)/C=C/c4sccc4C)ccc3n2)CC1 | i
Cc1ccc(C(=O)CSc2nc(N)c(C#N)c(-c3cccs3)c2C#N)cc1 | i
COc1ccc(C2CC(=O)C3=C(C2)NC(C)=C(C(=O)OC(C)C)C3c2cccc(Cl)c2Cl)cc1OC (stereo not drawn) | i
CN(CC(=O)NC(C)(C)C)S(=O)(=O)c1ccccc1 | i
CN(CCCNc1ccnc2cc(Cl)ccc12)C(=O)COc1ccccc1 | i
Cc1cc(Cl)c(S(=O)(=O)N2CCSCC2)cc1OCC(=O)NC1CCCCC1 | i
Cc1nc(-c2cnccc2C(F)(F)F)sc1C(=O)NN | i
COc1ccc2c(c1)c(C)cc[n+]2Cc1ccccc1 | i
COc1ccc(N(CC(=O)NCCc2ccc(F)cc2)S(=O)(=O)c2ccccc2)cc1 | i
CCN(CC)CCN(Cc1cc2cc(OC)ccc2[nH]c1=O)C(=S)Nc1cccc(Cl)c1 | i
O=C(/C=C/c1ccc(Br)cc1)NC(=O)c1ccccc1O | i
COc1ccc(CCNC(=O)c2cc(S(=O)(=O)N3CCC4(CC3)OCCO4)ccc2F)cc1OC | i
CN1C(=Cc2cccc[n+]2C)Sc2ccccc21 | i
COc1ccc(OC)c(NC(=O)CSc2nc(NCc3ccc(Cl)cc3)c3ccccc3n2)c1 | i
NCCCCCCNc1ccnc2cc(Cl)ccc12 | i
O=C(Cc1cccs1)N1CCN(c2ccccn2)CC1 | i
O=C1C2=C(Nc3ccccc3SC2c2ccccc2)c2ccccc21 (stereo not drawn) | 0.094µM*
Cc1ccc(NC(C)c2nc3ccccc3c(=O)n2CCOC2CCCCO2)cc1C (stereo not drawn) | i
CCOC(=O)C(=O)N1c2ccc(OC)cc2-c2c(ssc2=S)C1(C)C | i
Cn1cc(/C=C/c2cc[n+](C)cc2)c2ccccc21 | i
S=C(NC1CCCCC1)NC1CC2CCC(C1)N2Cc1ccccc1 (stereo not drawn) | i
COc1cc(OC)cc(C(=O)N2CCN(Cc3cccc(Br)c3)CC2)c1 | i
COc1cc(C(=O)Nc2nnc(-c3ccccc3)o2)cc(OC)c1OC | i
CC(C)(C)C1=CC(=C2C=C(C(C)(C)C)SC(C(C)(C)C)=C2)C=C(C(C)(C)C)S1 | i
O=c1[nH]c2cc(Cl)c(Br)nc2[nH]1 | i
CCN1C(=S)NC2c3cc(C)ccc3OC13CCCC23 (stereo not drawn) | i
Cc1cccc(NC(=O)CCCn2c(=O)c3cccn3c3ccccc32)c1C | i
COC(=O)N(C)C(C)(C)C(C)=NOC(=O)c1ccccc1 | i
C=C1C=CN(Cc2ccccc2)c2ccc(OC)cc21 | i
CC1=C(C(=O)OC(C)C)C(c2ccccc2F)C2=C(CC(C)(C)CC2=O)N1 (stereo not drawn) | i
CCCCc1ccc(C(=O)N(CCC(=O)Nc2nnc(-c3ccc(OC)cc3)s2)CCc2ccc(OC)c(OC)c2)cc1 | i
CCN1CCC(NCCC(c2ccccc2)c2ccccc2)CC1 | i
CN1C(=Cc2cccc[n+]2C)C=Cc2ccccc21 | i
COc1ccc(-c2ccc3c(N)c(C(=O)NCCc4ccccc4)sc3n2)cc1OC | i

Part of the list above in another layout.
smiles: CN1C(=Cc2cccc[n+]2C)C=Cc2ccccc21
- P. yoelii liver: i

smiles: O=C(/C=C/c1ccc(Br)cc1)NC(=O)c1ccccc1O
- P. yoelii liver: i

smiles: Cc1nc(-c2cnccc2C(F)(F)F)sc1C(=O)NN
- P. yoelii liver: i

smiles: O=C1C2=C(Nc3ccccc3SC2c2ccccc2)c2ccccc21 (stereo not drawn)
- P. yoelii liver: 0.094µM*

Next part.
SMILES | P. yoelii liver
CN(CCCNc1ccnc2cc(Cl)ccc12)C(=O)C12CC3CC(CC(C3)C1)C2 | i
Cc1ccc(NC(=O)c2sc3nc4c(c(-c5cccs5)c3c2N)CCCC4)cc1 | i
C=CCNC(=O)c1cc2c(=O)n3cccc(C)c3nc2n(CCc2ccccc2)c1=N | i
CCCCCC[P+](N(CCC)CCC)(N(CCC)CCC)N(CCC)CCC | 0.049µM*
CC(C)=CCC/C(C)=C/CCC(C)NCCN1CCNCC1 (stereo not drawn) | i
CC(CNC(=O)c1cn(C2CCCCC2)cc(C(=O)NC(C)(C)C)c1=O)c1ccccc1 (stereo not drawn) | i
C=CCOc1ccccc1CN1CCN(c2ccccn2)CC1 | i
COc1cc(NC(C)CCCN(Cc2ccc(F)cc2)C(=O)Nc2ccc(Br)cc2)c2ncccc2c1 (stereo not drawn) | i
CC(=O)N(C1=C(N2CCC(C)CC2)C(=O)c2ccccc2C1=O)c1cccc(F)c1 | i
COc1ccccc1N(CN1C(=O)c2ccc(Br)cc2C1=O)C(C)=O | i
CCOC(=O)C1=C(O)/C(=C/c2cc(C)n(-c3ccc(C)cc3C)c2C)N=C1C | i
CC(=O)NCCc1ccc(O)cc1 | i
COc1ccc(C2CC(c3ccccc3Cl)n3ncnc3N2C(=O)C2CC2)cc1 (stereo not drawn) | i
COc1ccccc1NC(=O)N1CCN(C(=O)c2nc(-c3ccccc3)nc(C)c2C(=O)OC(C)C)CC1C (stereo not drawn) | i
c1cncc(-c2cc(NCCCN3CCOCC3)nc(-c3ccncc3)n2)c1 | i
O=C(NC1CCN(CC(O)CN(Cc2ccccc2)S(=O)(=O)c2ccccc2)C1)c1cccc2ccccc12 (stereo not drawn) | i
CCCCN(CCCC)[P+](N(CCCC)CCCC)(N(CCCC)CCCC)N(CCCC)CCCC | 0.012µM*
CCOC(=O)c1c[nH]c2ccc(C(C)C)cc2c1=O | 0.35µM*
CCOC(=O)c1cccc(NC(=O)CCn2nc(C)c3c(C)n(-c4ccccc4)nc3c2=O)c1 | i
N#Cc1c(N)nc(SCC(=O)c2ccc([N+](=O)[O-])cc2)c(C#N)c1-c1ccccc1 | i
CN(C)CC(C)(C)CNCc1cc(-c2ccccc2)ccc1O | i
Nn1c(Nc2cccc([N+](=O)[O-])c2)c(O)[nH]c1=O | i
O=C(Nc1ccc(F)c(F)c1)c1cc2cc(C3(O)CCN(Cc4ccccc4F)CC3)ccc2o1 | i
CC(C)OC(=O)c1cccnc1SCC(=O)Nc1ccc(C(F)(F)F)cc1Cl | i
CN(C)CCNc1cc(-c2ccccc2)nc2ccccc12 | i
CCCCOc1ccc(C2C3CCCC=C3C(C#N)=C(N)C2(C#N)C#N)cc1 (stereo not drawn) | i
COC(=O)c1ccccc1NC(=O)COc1cccc(OC)c1 | i
Cc1ccc(-n2c(C(C)N(CCc3ccccc3)C(=O)c3cccc(F)c3)nc3ccccc3c2=O)c(C)c1 (stereo not drawn) | i
CN(CCCNc1ccnc2cc(Cl)ccc12)C(=O)/C=C/c1ccccc1 | i
CCOC(=O)C1CCN(C(=O)CN2C(=O)c3ccccc3C2c2c[nH]c3ccccc23)CC1 (stereo not drawn) | i
COc1ccc(CN(CC2CCN(C(=O)c3ccccc3Cl)CC2)C(=O)c2ccc(Cl)cc2Cl)cc1 | i
COc1cc(COc2cc(N)c(Cl)cc2C(=O)CCC2CCN(CCNS(C)(=O)=O)CC2)cc(OC)c1 | i
CC(C)N(CC(=O)Nc1cc(C(C)(C)C)nn1-c1ccc(Cl)cc1)C(=O)c1ccc(C(C)(C)C)cc1 | i
COc1cc(/C=C(\C#N)c2nc3ccccc3[nH]2)ccc1OCc1ccccc1 | i
O=C(NCc1ccco1)c1ccc(OC2CCN(CC3CCCCC3)CC2)c(Cl)c1 | i
CC(C)(C)C1CCc2[nH]c3ccccc3c(=O)c2C1 (stereo not drawn) | 0.098µM*
CCN1C(=Cc2ccc3ccccc3[n+]2CC)Sc2ccc(OC)cc21 | i
CC1=C(C(=O)OC2CCCCC2)C(c2cccc([N+](=O)[O-])c2)C2=C(CCCC2=O)N1 (stereo not drawn) | i
COc1ccc2c(c1)C(=NN=C(N)N)c1cc(OC)ccc1-2 | i
Cc1ccc2nc(/C(C#N)=C/c3cn(Cc4ccc(Cl)cc4Cl)nc3-c3ccccc3)[nH]c2c1 | i
CCc1cc2c(Nc3ccncc3)ncnc2s1 | i
CCCCCN(C(=O)COc1ccc(Cl)cc1)C(CC)c1nc2ccccc2c(=O)n1-c1cccc(Cl)c1 (stereo not drawn) | i
Cc1nc2cc(-c3ccc(I)cc3)[nH]n2c(=O)c1C | 0.12µM*
Cc1nc(N2CCC(C)CC2)c2c(C)c(C(=O)Nc3ccc(C(F)(F)F)cc3)sc2n1 | i
Clc1nc(Nc2ccccc2)nc(N2CCCCC2)n1 | i
Cc1cc(C)c(NC(=S)N(CCCN2CCCCC2)Cc2cccs2)c(C)c1 | i
CCCN1CCN(C(=O)C(=O)Nc2ccc3nc4n(c(=O)c3c2)CCCCC4)CC1 | i
CN(C)CCCNc1ncc(C(=O)NCCc2ccccc2)c(NCC2CCCCC2)n1 | i
COc1cccc(CN2CCC(O)(c3ccc4oc(C(=O)Nc5ccc(Cl)cc5)cc4c3)CC2)c1 | i
O=C(O)CSC(C(=O)Nc1ccc(Cl)cc1)c1ccccc1 (stereo not drawn) | i
COc1cccc(CC2(CO)CCCN(Cc3sc(N4CCCC4)nc3Cl)C2)c1 (stereo not drawn) | i
COc1ccc(-c2csc(NC(=O)COc3ccccc3Cl)n2)cc1Br | i
O=C1C(=O)N(Cc2cccc3ccccc23)c2ccc(Br)cc21 | i
COc1ccc2c(c1)sc1nc(C)c(C)c(C)[n+]12 | i
CCCCCCc1ccc(C(=O)N(C)CCCNc2ccnc3cc(Cl)ccc23)cc1 | i
CCN(CC)CCNC(=O)c1cc(-c2ccc(Cl)cc2)cc(-n2cnnn2)c1 | i
c1ccc2nc3c(nnc4ccccc43)nc2c1 | i
CC(=O)N(C1=C(N2CCCCC2)C(=O)c2ccccc2C1=O)c1ccccc1C | i
CCCC(=O)NC(c1cccc([N+](=O)[O-])c1)c1ccc2cccnc2c1O (stereo not drawn) | i
Cc1ccc(C)c(NC(=O)C2CCCN(c3nnc(N4CCCC4=O)s3)C2)c1 (stereo not drawn) | i
O=S(=O)(NC1=CC2C(=Nc3ccc(NS(=O)(=O)c4ccc(Br)cc4)cc3N2c2ccccc2)C=C1)c1ccc(Br)cc1 (stereo not drawn) | i
O=C(NCCCNC(=O)Nc1cccc(C2=NCCN2)c1)Nc1cccc(C2=NCCN2)c1 | i
COC(=O)C1=C(C)NC2=C(C(=O)CC(C)(C)C2)C1c1ccccc1[N+](=O)[O-] (stereo not drawn) | i

An excerpt from above in order of length of the SMILES, rising.
SMILES | P. yoelii liver
Clc1nc(Nc2ccccc2)nc(N2CCCCC2)n1 | i
O=C1C(=O)N(Cc2cccc3ccccc23)c2ccc(Br)cc21 | i
Cc1cc(C)c(NC(=S)N(CCCN2CCCCC2)Cc2cccs2)c(C)c1 | i

This is a subset. The share of hits here may be higher or lower than overall.
